Screening results from PubChem.
Efflux pump mplx – inhibitors of Candida antifungal efflux pumps expressed in yeast. AID 485275. inhibition, % at 10 µM. S. cerevisiae Candida pump triplex, Nile Red efflux. hit rate 0.44% among 330,000;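 active means plate passing quality check with inhibition over a set limit, or well fluorescence over plate mean plus 4 SD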;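 further: Nile Red retained in pooled yeast measured as flow cytometry median fluorescence; 0% = buffer negative control and 100% = Enniatin B positive control; higher means more Nile Red kept so more efflux inhibition; some compounds called inactive have numbers as strong as hits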
TPT1 inh – inhibitors of Candida albicans tRNA 2'-phosphotransferase TPT1. hit rate 0.81% among 300,000. inhibition, % at 5 µM. recombinant caTPT1, FP RNA substrate dephosphorylation;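 active means inhibition above the mean of all tested compounds plus 3 SD, set per screening campaign, cut at about 24% in these data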;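 further: plate controls were DMSO alone for no effect and ferristatin control at 100 nM for full effect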
HCV core dimer – HCV core protein dimerization inhibition | AID 1899 | inhibition, % at 5 µM | TR-FRET GST/Flag-core106 dimerization, 1536-well | hit rate 0.33% among 300,000;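 active means inhibition above the mean of all tested compounds plus 3 SD, set per screening campaign, cut at about 45% in these data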
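Assay system – GST-tagged and Flag-tagged HCV core protein residues 1-106 · Quantity – core106 proteins, GST 13.5 nM and Flag 17 nM · Benchmarks – unlabelled core106 and no-GST-core106 wells · Read-out basis – percent inhibition of core106 dimerization signal · Detection – time-resolved FRET, ex 340 nm, em 617 and 671 nm · Schedule – 4 h at 22.5 °C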
ZTA counter – blocks Epstein-Barr virus ZTA, an EBNA-1 counter-screen. P03206. ZTA-DNA binding, fluorescence polarization. inhibition, % at 11 µM. hit rate 0.15% among 320,000. AID 2234; in the data active means inhibition above about 33%
Target sequence (P03206 whole entry, looked up): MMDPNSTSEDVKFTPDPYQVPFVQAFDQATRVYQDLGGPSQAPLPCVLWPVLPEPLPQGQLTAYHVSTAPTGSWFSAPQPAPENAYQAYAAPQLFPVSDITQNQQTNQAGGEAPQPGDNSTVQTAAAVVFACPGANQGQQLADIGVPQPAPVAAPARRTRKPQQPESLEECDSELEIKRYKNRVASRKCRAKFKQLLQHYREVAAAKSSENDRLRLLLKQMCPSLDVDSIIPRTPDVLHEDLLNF
PP1 counter – counter-screen for PP5 inhibitors: inhibitors of human PP1-alpha; inhibition, % at 6.7 µM; hit rate 0.9% among 320,000; AID 2235; purified PP1alpha, OMFP fluorescence;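 active means inhibition above the mean inhibition of all tested compounds plus 3 SD, computed separately for each screening campaign, cut at about 15% in these data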
Target sequence (P62136 whole entry, looked up): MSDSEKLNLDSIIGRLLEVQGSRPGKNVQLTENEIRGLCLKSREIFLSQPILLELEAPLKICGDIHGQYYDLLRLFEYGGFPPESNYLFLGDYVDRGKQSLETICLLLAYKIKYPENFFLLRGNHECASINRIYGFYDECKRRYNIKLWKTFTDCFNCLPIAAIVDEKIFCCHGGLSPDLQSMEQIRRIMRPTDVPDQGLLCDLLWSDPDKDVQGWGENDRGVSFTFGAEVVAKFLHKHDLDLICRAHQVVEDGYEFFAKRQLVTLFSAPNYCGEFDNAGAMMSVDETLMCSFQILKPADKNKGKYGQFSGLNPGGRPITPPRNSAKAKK
Fh CTSL1 inh – cathepsin L1 inhibition, PFM18AAP counter-screen; recombinant F. hepatica cathepsin L1, Z-Leu-Arg-MCA fluorescence; inhibition, % at 5.96 µM; hit rate 0.49% among 300,000; AID 1906;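 active means inhibition above the mean of all tested compounds plus 3 SD, set per screening campaign, cut at about 17% in these data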;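 further: 0% = plate median of test compound wells and 100% = 1 µM Z-Phe-Ala-diazomethylketone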
EBNA-1 inhibitor – blocks EBNA-1 binding to DNA. AID 1950. hit rate 0.34% among 300,000. EBNA-1 DNA binding, fluorescence polarization. inhibition, % at 14.8 µM; in the data active means inhibition above about 28%
PP5 primary – inhibitors of human protein phosphatase 5 (PP5). P53041. purified PP5c, OMFP substrate fluorescence. inhibition, % at 6.7 µM. hit rate 0.18% among 320,000. AID 1987;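 active means inhibition above the campaign's mean inhibition across all tested compounds plus 3 SD, cut at about 9.5% in these data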;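 further: 0% = DMSO only and 100% = 100 µM cantharidin control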
Target sequence (P53041 whole entry, looked up): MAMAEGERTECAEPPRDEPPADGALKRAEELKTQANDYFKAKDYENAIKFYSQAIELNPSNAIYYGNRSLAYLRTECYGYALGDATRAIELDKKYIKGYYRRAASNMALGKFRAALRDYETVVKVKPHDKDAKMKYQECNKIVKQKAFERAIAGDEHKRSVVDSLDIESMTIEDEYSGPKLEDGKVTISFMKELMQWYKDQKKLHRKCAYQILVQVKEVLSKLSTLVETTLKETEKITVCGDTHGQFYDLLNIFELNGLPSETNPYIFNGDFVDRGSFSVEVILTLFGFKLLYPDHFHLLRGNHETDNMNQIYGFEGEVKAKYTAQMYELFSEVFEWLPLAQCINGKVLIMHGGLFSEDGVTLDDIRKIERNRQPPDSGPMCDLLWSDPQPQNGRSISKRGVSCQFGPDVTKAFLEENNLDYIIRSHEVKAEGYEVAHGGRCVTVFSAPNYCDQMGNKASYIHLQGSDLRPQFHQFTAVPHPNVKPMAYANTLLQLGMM
Starred values were filed as active, the others as inactive; . = not tested or not shown. Some of the compounds tested, so the mix of outcomes need not match the whole.

SMILES | Efflux pump mplx | TPT1 inh | HCV core dimer | ZTA counter | PP1 counter | Fh CTSL1 inh | EBNA-1 inhibitor | PP5 primary
COC(=O)c1[nH]c2ccc(C)cc2c1NC(=O)CN1CCC(C)CC1 | 0.1 | -0.6 | -10.7 | 17.1 | 0.2 | 1.4 | 2.0 | 3.1
O=C(c1cc(-c2cccs2)nc2ccccc12)N1CCN(S(=O)(=O)c2cccc(F)c2)CC1 | 0.1 | 2.2 | 20.5 | 0.4 | -0.3 | 4.4 | -16.0 | 6.5
C/C(N)=C(/C#N)C(=O)COC(=O)c1cc2c(s1)CCC(C)C2 (stereo not given) | -0.1 | -2.4 | 3.1 | -1.0 | 0.8 | 4.2 | 12.9 | 5.4
CC1Cc2nc(SCC(=O)Nc3ccc4c(c3)OCO4)n(CCc3ccccc3)c(=O)c2S1 (stereo not given) | 0.1 | 1.1 | 19.6 | -12.9 | 3.0 | 3.4 | -12.6 | 2.0
CC(C)NC(=O)CC(=O)NN=C1CCCCC1 | -0.1 | -0.4 | -3.6 | 11.4 | -4.0 | -0.6 | 4.0 | -3.4
CCCn1c(N2CCN(CC(=O)c3c[nH]c4ccccc34)CC2)nc2c1c(=O)[nH]c(=O)n2C | 0.3 | 1.9 | -1.9 | -4.9 | -3.8 | 3.6 | 0.8 | 1.9
O=C(CSc1ccc(-c2ccccn2)nn1)N1CCCc2ccccc21 | 0.0 | -0.3 | 3.6 | 5.6 | -3.8 | 0.0 | 7.4 | 0.7
O=C(Oc1ccccc1Cl)c1ccc(N2CCOCC2)c([N+](=O)[O-])c1 | 0.9 | 2.1 | -1.1 | -12.3 | 1.9 | -5.0 | -3.9 | 5.6
O=C(O)Cn1c(O)c(C2=c3ccccc3=NC2=O)sc1=O | 0.0 | -2.0 | -12.5 | -26.3 | 0.7 | -2.9 | -1.2 | 2.7
CCN(CC)CCCNC(=S)N1CCN(c2nc(-c3ccc(F)cc3)cs2)CC1 | -0.1 | -3.5 | -13.2 | 15.4 | 0.6 | -2.4 | 1.1 | -1.3
Cc1ccc(C(=O)O/N=C2\CCS(=O)(=O)c3sccc32)cc1 | 0.1 | -2.6 | -1.1 | -7.8 | 0.0 | -0.2 | 2.4 | 1.7
COc1ccc2cc(C(=O)N3CCc4ccccc43)[nH]c2c1 | -0.1 | 1.3 | -15.0 | -11.8 | 3.9 | 5.5 | -4.8 | 2.5
CCCCS(=O)(=O)N1CCCC(C(=O)Oc2ccc(Cl)cc2)C1 (stereo not given) | -0.2 | -1.4 | -3.9 | -6.5 | -0.8 | -11.3 | -1.3 | 3.7
CCOC(=O)CSc1nnc(NCC(=O)OC(C)C)c(=O)[nH]1 | 0.2 | 5.7 | 2.6 | 11.8 | -3.6 | 1.8 | -11.2 | -0.9
O=C(NCc1ccc(Cl)cc1)c1ccc(COCC(F)(F)F)o1 | -0.1 | -2.8 | -0.1 | -2.6 | 6.5 | -0.4 | 7.1 | -1.8
O=C(O)c1cccc(S(=O)(=O)Nc2ccc(-c3ccccc3)cc2)c1 | 0.0 | . | . | . | . | . | . | .
COc1ccccc1/C=C/C=N/n1c(-c2ccncc2)n[nH]c1=S | 0.3 | 0.9 | 0.0 | 0.5 | 1.6 | -2.9 | -6.4 | 4.6
Cc1ccc(/C=N/n2c(-c3ccncc3)n[nH]c2=S)o1 | 0.1 | -0.6 | -6.6 | -4.2 | 0.0 | 0.7 | 3.4 | 3.5
C/C=C(\C)C(=O)NCCN1C2=NC[C@H](Cc3ccc(O)cc3)N2C[C@H]1Cc1ccc(O)cc1 | -0.1 | -5.0 | -4.8 | -3.6 | -1.6 | -2.6 | 4.0 | 0.0
Clc1ccc(CSc2ccc(-c3ccccn3)nn2)cc1 | -0.1 | -2.4 | 2.9 | -0.6 | -1.4 | -1.6 | 2.0 | 0.5
CCOC(=O)N1CCC(NC(=O)c2ccc3c(c2)N=C(C)c2c(C)ccc(C)c2S3)CC1 | 0.1 | 2.2 | 0.8 | -3.1 | 4.9 | -3.0 | -7.9 | 2.2
CC(Oc1ccc(F)cc1)C(=O)Nc1sc2c(c1C(=O)NCc1cccnc1)CCCC2 (stereo not given) | 0.1 | -2.4 | 3.8 | 0.7 | 3.3 | -2.0 | 11.3 | 3.0
Nn1c(SCC(=O)Nc2ccc(S(N)(=O)=O)cc2)nnc1C(F)(F)F | 0.0 | -0.7 | -7.3 | -9.1 | 1.9 | 0.2 | -7.2 | 1.8
CC(=O)Cc1nsc(NC(=O)c2ccccc2)n1 | 0.2 | 2.5 | -1.1 | -4.6 | -2.0 | -1.4 | -3.5 | 1.1
CC(Sc1nnc(Cc2cccs2)n1C1CCCCC1)C(=O)N1CCc2ccccc21 (stereo not given) | -0.1 | 3.4 | 15.9 | 0.5 | 4.0 | 3.1 | -8.8 | 1.9

Next section, starting with the last 2 of the part before.
SMILES | Efflux pump mplx | TPT1 inh | HCV core dimer | ZTA counter | PP1 counter | Fh CTSL1 inh | EBNA-1 inhibitor | PP5 primary
CC(=O)Cc1nsc(NC(=O)c2ccccc2)n1 | 0.2 | 2.5 | -1.1 | -4.6 | -2.0 | -1.4 | -3.5 | 1.1
CC(Sc1nnc(Cc2cccs2)n1C1CCCCC1)C(=O)N1CCc2ccccc21 (stereo not given) | -0.1 | 3.4 | 15.9 | 0.5 | 4.0 | 3.1 | -8.8 | 1.9
Cc1ccc(OCC(=O)NC2CC(C)(C)NC(C)(C)C2)cc1C | 0.1 | -1.9 | -9.2 | -1.0 | -3.0 | -0.2 | 5.2 | -1.0
O=[N+]([O-])c1ccc(Oc2ccc(F)cc2Br)c2ccncc12 | 0.3 | 3.6 | 6.5 | 2.1 | 2.3 | 4.5 | -2.2 | 3.2
OCCC1CN(Cc2cnc(-c3ccc(Cl)cc3)nc2)CCN1C1CCCC1 (stereo not given) | 0.0 | -0.6 | -1.2 | 8.6 | -4.0 | 6.3 | -0.2 | -0.3
COc1ccccc1NC(=S)N1CC(C)(C)C1=O | 0.2 | 0.3 | -13.2 | 2.5 | -1.0 | 4.4 | 0.8 | 3.0
Cc1ccc(C(=O)NCCN2C3=NC[C@@H](Cc4ccccc4)N3C[C@H]2Cc2ccc(O)cc2)cc1Br | . | -1.5 | -20.1 | -10.9 | 15.0 | 1.3 | -3.0 | 4.9
CSCC[C@@H](C(=O)O)N1Cc2ccccc2C1=O | -0.2 | -5.1 | 6.4 | -1.3 | 4.5 | 0.6 | 5.9 | 0.1
CCOc1ccc(C(=O)C(CN2CCOCC2)c2ccccc2)cc1 (stereo not given) | 0.4 | 3.0 | -1.5 | -5.0 | 0.7 | -0.9 | -2.0 | 3.3
COc1ccc(COC(=O)Oc2ccc(CNC(C)=O)cc2OC)c([N+](=O)[O-])c1 | -0.1 | -3.3 | -12.6 | -22.0 | -0.2 | -2.7 | -6.1 | 5.1
O=C(N/N=C1\CCCc2ccccc21)C(O)c1ccccc1 (stereo not given) | -0.1 | 0.8 | 1.8 | 8.4 | -2.4 | 4.0 | 6.5 | -1.4
CCOc1cc(/C=N/NC(=O)CN2CCCCC2)ccc1OCc1cccc(Cl)c1 | -0.2 | -4.2 | -8.8 | -17.8 | 10.4 | 0.9 | -5.7 | 3.3
CCSCCOC(=O)C1=C(C)NC(=O)NC1c1cc(OC)ccc1OC (stereo not given) | 0.1 | 2.8 | 6.0 | -5.2 | 5.4 | 0.5 | -14.7 | 0.0
CN(C)c1ccc(/C=N/n2c(-c3cccnc3)n[nH]c2=S)cc1 | -0.1 | -2.0 | -5.2 | 3.0 | -2.5 | 9.3 | 11.4 | 0.8
COc1ccc(OC)c(-n2c(-c3cccc(O)c3)n[nH]c2=S)c1 | -0.1 | -0.3 | -1.7 | -4.8 | -4.2 | 16.1 | -12.4 | 1.1
CN1CCN(c2ccccc2NC(=O)c2ccc(OCc3ccccc3)cc2)CC1 | 0.1 | -0.8 | -5.1 | -7.2 | 1.4 | -0.7 | -4.4 | 2.9
COc1ccc(C(C(=O)NC2CCCCC2)N(C(=O)c2ccccn2)c2cccnc2)c(OC)c1 (stereo not given) | 0.1 | 0.9 | -4.2 | 10.0 | 2.5 | -7.2 | -11.4 | -2.8
CCN(CC)CC(O)Cn1c(C)c(-c2ccccc2)c2cc([N+](=O)[O-])ccc21 (stereo not given) | -0.2 | -3.1 | -13.3 | 7.5 | 4.6 | -4.9 | -8.0 | 2.5
CC(C(=O)N1CCOCC1)N1C(=O)c2ccccc2C1=O (stereo not given) | 0.0 | -6.7 | 6.3 | 3.8 | -0.1 | 1.8 | -1.4 | 1.2
c1ccc(C(c2nnnn2C2CCCCC2)N2CCc3ccccc3C2)nc1 (stereo not given) | -0.1 | -5.6 | -5.9 | -30.6 | 2.6 | -5.5 | -11.1 | 0.4
Cc1cccc(-c2n[nH]c(=S)n2/N=C/c2ccc(C)o2)c1 | -0.1 | 0.6 | 6.8 | 0.4 | 4.5 | -0.3 | -3.5 | 2.6
Cc1cc(Cl)ccc1OCC(=O)Nc1cccc(S(=O)(=O)NC2=NCCCCC2)c1 | 0.0 | 3.2 | 3.0 | -6.0 | -4.2 | 3.7 | -13.0 | 5.9
COc1ccc(C2CC(c3ccc(OC)cc3)n3nc(N)nc3N2)cc1 (stereo not given) | -0.3 | -1.6 | -3.7 | -2.0 | 1.1 | 1.5 | 14.6 | 1.8
O=c1c2cc(N3CCOCC3)ccc2[nH]c(=S)n1CCCN1CCN(c2ccccc2F)CC1 | 0.0 | -4.1 | 2.0 | -17.5 | 0.2 | -1.8 | -6.8 | -1.7
O=C(CN1CCN(S(=O)(=O)c2ccc(F)cc2)CC1)NCc1cccs1 | 0.1 | 1.6 | -0.7 | -7.7 | -4.8 | -0.8 | 3.1 | -0.5
CC(CSc1nc2ccccc2s1)Cn1c(N2CCCC2)nc2c1c(=O)[nH]c(=O)n2C (stereo not given) | 0.3 | -2.0 | 12.9 | 4.3 | 2.6 | -4.3 | -4.5 | 1.8
O=C(CSc1nc2ccccc2nc1N1CCCCC1)N1CCN(c2ccccc2)CC1 | -0.1 | 0.2 | 0.5 | 7.4 | 3.9 | -0.6 | 6.1 | 0.5

An excerpt from above with just PP1 counter:
compound,PP1 counter
CN(C)c1ccc(/C=N/n2c(-c3cccnc3)n[nH]c2=S)cc1,-2.5
COc1ccc(OC)c(-n2c(-c3cccc(O)c3)n[nH]c2=S)c1,-4.2
CN1CCN(c2ccccc2NC(=O)c2ccc(OCc3ccccc3)cc2)CC1,1.4
COc1ccc(C(C(=O)NC2CCCCC2)N(C(=O)c2ccccn2)c2cccnc2)c(OC)c1 (stereo not given),2.5

New compounds follow.
SMILES | Efflux pump mplx | TPT1 inh | HCV core dimer | ZTA counter | PP1 counter | Fh CTSL1 inh | EBNA-1 inhibitor | PP5 primary
O=C(CN1CCN(Cc2ccc(F)cc2Cl)C1=O)NCc1cccs1 | 0.0 | -5.5 | 0.7 | 3.4 | -4.2 | 3.2 | 2.5 | 0.1
COc1ccc(CNC(C)CCc2ccccc2)cc1 (stereo not given) | -0.1 | -2.3 | -7.4 | 8.1 | -5.1 | 13.3 | -9.8 | -8.0
C=CCn1c(CCNC(=O)c2cccs2)nnc1SCC(=O)Nc1cccc(F)c1 | 0.0 | -3.6 | -0.5 | 16.1 | -1.8 | -4.1 | 11.2 | -0.6
Cc1sc2ncn(CC(=O)NCCCC(=O)N3CCC(C(N)=O)CC3)c(=O)c2c1C | 0.0 | -2.0 | -9.3 | 10.0 | -0.7 | 3.0 | -10.8 | -0.4
COc1ccc(OC)c([C@@H]2OCCC=C[C@H]2C)c1 | -0.1 | -0.1 | -13.0 | -0.1 | 2.0 | 1.3 | -6.3 | 0.6
Cc1cc(-c2csc(NC(=O)c3ccc(C#N)cc3)n2)c(C)n1Cc1ccco1 | 0.1 | 9.1 | 48.6* | -9.3 | 16.6* | -2.4 | -4.4 | 0.3
O=C1CC(C(=O)N2CCN(c3ccccc3O)CC2)CN1Cc1ccccc1 (stereo not given) | 0.1 | 1.6 | 2.9 | -6.2 | -2.5 | 2.7 | 9.5 | 1.3
